T cruzi inh = inhibitors of intracellular T. cruzi growth, primary screen, luminescence, NIH3T3 host cells. T. cruzi beta-gal in NIH3T3, 90 h. inhibition, % (concentration not given with the values). 300,000 tested, 1.4% active;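 active = mean inhibition across valid replicates above about 55%, limit read from the data; inconclusive = mean below that limit but half or more replicates reach it; inactive = mean below it, under half of replicates reach it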;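 also: signal also drops with host cell toxicity which is not excluded here; 0% = plate median of DMSO wells and 100% = zero luminescence signal; higher percent means less beta-gal luminescence so fewer parasites; stock transfer was 50 nL into about 50 µL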
MLL AF4-AF9 inh = inhibitors of AF4 peptide binding to AF9, primary screen, biochemical, AlphaScreen, biotin-AF4 peptide, FLAG-AF9, single point | Protein AF-9 (Homo sapiens), P42568 | inhibition, % at 10 µM | 350,000 tested, 0.47% active | AID 651704, 2012;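 active = every replicate reaching a set inhibition limit, whatever the replicate mean, cut at about 25% in these data; inconclusive = mean inhibition reaches that limit but some replicates miss it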;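 also: 0% = plate neutral control median and 100% = total signal loss; the record names both 10 and 1 µM as test concentration; the first replicate is given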
LANA-H2B inh = blockers of LANA interaction with H2A/H2B – biochemical, FP readout, HTS, primary screen; Protein LANA1 (Human herpesvirus 8 type P (isolate GK18)), Q9QR71; cell-free LANA-H2A/H2B peptide, fluorescence polarization; inhibition, % (concentration not given with the values); 320,000 tested, 0.6% active; in the data active = inhibition mostly above about 10%, no sharp cut-off; inactive = mostly below about 6.7%;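 also: stock transfer was 7.5 nL into about 10 µL; 0% = median of vehicle wells and 100% = median of positive control wells; one replicate is shown; the record names a cut of 25% in any replicate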
Target sequence (Q9QR71 whole entry, looked up): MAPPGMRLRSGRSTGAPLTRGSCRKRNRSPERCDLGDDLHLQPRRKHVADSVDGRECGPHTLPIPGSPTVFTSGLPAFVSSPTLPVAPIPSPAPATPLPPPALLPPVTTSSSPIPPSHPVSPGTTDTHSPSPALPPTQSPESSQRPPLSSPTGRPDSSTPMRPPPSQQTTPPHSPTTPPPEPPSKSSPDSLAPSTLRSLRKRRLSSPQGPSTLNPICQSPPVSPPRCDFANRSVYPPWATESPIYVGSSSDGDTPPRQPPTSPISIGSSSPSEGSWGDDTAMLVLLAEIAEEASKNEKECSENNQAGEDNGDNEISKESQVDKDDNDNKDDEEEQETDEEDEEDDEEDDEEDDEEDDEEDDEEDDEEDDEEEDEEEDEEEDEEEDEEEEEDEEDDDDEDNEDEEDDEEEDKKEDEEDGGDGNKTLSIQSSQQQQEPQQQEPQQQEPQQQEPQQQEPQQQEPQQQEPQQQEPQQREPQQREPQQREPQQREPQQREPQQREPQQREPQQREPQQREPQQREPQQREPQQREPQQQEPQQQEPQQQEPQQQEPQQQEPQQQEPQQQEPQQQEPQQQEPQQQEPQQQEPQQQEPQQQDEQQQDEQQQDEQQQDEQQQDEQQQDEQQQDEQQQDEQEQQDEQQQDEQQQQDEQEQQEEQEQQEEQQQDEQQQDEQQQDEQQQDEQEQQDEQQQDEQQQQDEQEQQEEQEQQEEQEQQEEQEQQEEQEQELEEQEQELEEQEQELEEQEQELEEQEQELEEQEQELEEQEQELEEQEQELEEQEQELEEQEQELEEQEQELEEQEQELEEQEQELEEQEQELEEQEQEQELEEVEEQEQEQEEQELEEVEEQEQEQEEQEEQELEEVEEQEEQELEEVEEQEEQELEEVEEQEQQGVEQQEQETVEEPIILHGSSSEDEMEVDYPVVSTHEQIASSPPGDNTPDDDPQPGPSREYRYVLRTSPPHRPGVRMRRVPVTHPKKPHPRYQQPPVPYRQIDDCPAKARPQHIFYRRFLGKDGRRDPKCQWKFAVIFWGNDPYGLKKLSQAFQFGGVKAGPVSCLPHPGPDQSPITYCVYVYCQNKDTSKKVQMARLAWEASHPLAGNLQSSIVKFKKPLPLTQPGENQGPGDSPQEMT
A1 inh = caspase 3/7 activation in MEF A1-2A-BIM cells, primary screen, A1 inhibitor project, cell-based, luminescence, HTS; Caspase-Glo 3/7 luminescence, 3 h; percent of clofoctol response, vehicle zero; caspase activation, % (no concentration beside the values); 330,000 tested, 0.066% active; AID 2462, 2010;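 active = over half of replicate activation scores above 10%, or exactly half above 10 with the replicate mean above 10; inconclusive = replicate mean below 10 yet half the replicates above 10; inactive = over half of replicates below 10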;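 also: wells of about 30 µL received 50 nL stock; many hits fall short of the cut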
Vif TR-FRET = inhibitors of Vif binding to APOBEC3G peptide, primary screen, biochemical, TR-FRET, GST-Vif 1-94, biotin-A3G peptide, dose response retest (AID 1117319); Virion infectivity factor (Human immunodeficiency virus type 1 group M subtype B (isolate …; TR-FRET GST-Vif / biotin-A3G peptide binding; higher % means a stronger effect; test concentration not given here; strong numbers were not always called active; one-dose inhibition, %; IC50 in µM for titrated hits; 260,000 tested, 0.57% active;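 active = above the screen mean plus three standard deviations and confirmed in dose response; inconclusive = results disagree or hit not tested in dose response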;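 also: Vif residues 1-94 fused to GST binding biotinylated APOBEC3G peptide 110-148; 0% = full assay without inhibitor and 100% = GST in place of GST-Vif; retest series ran down from 100 µM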
Calb FLC = C. albicans growth inhibition with fluconazole, primary screen, CaCi-2 strain, Alamar Blue fluorescence; C. albicans CaCi-2 (fluconazole-resistant clinical isolate) + fluconazole, 48 h; growth inhibition, % (concentration not given with the values); 300,000 tested, 0.57% active; AID 1979, 2009;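 active = most replicates above 75%; inconclusive = exactly half above 75%; inactive = most below 75%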;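 also: all wells also contain fluconazole at 8 µg/ml as a sub-toxic cotreatment; 0% = median of DMSO wells and 100% = median of geldanamycin control wells; wells of about 8 µL received 7.5 nL stock; the first replicate is given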
Beta apoptosis = inhibitors of cytokine-induced beta cell apoptosis, primary screen, luminescence; AID 435005, 2010; INS-1E cytokine-induced death, ATP luminescence, 48 h; percent of positive-control rescue, neutral wells zero; 300,000 tested, 0.8% active; protection from apoptosis, % (no concentration beside the values);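 active = all replicates at 75% or more, or half of them and the mean; inconclusive = half reach 75% but not the mean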;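 also: 0% = cytokine-treated negative control wells and 100% = positive control rescue; higher means more ATP so stronger rescue from cytokine killing; wells of about 40 µL received 100 nL stock; the first replicate is given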
RanGTP-Imp inh = inhibitors of RanGTP-importin-beta interaction, primary screen, biochemical, FRET, CFP-Ran, YFP-importin-beta, homogeneous; cell-free CFP-Ran/YFP-importin-beta FRET ratio; inhibition, % (concentration not given with the values); 300,000 tested, 1.1% active;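 active = most replicates above 15%; inconclusive = exactly half above 15%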;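 also: 0% = DMSO wells and 100% = Ran loaded with GDP instead of GTP; wells of about 40 µL received 100 nL stock; the first replicate is given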
Numbers without * were called inactive; u = inconclusive; x = no result given; & = joins results of further samples.

1: O=S(=O)(Nc1ccc2ccccc2n1)c1ccc2c(c1)CCO2
2: CC1=NN(c2ccccc2)C(=O)/C1=C/c1cccc(C)c1
3: COc1cccc(NC(=O)Cn2nc(Cc3cccnc3)c3ccccc3c2=O)c1
4: CCN(CC#CCC1(O)c2ccccc2-c2ccccc21)C(C)C
5: CC1(OC(=O)C2CCCC2)C(=O)C=C2C=C(c3ccsc3)N(Cc3ccco3)C=C2C1=O (stereo not drawn)
6: Cc1cccc(NC(=O)c2cccc(C(F)(F)F)c2)c1
7: N/N=C1\CCCc2nonc21
8: COc1ccc(S(=O)(=O)N(C)C[C@H]2Oc3ccc(NC(=O)C4CC4)cc3C(=O)N([C@H](C)CO)C[C@@H]2C)cc1

| assay / entry | 1 | 2 | 3 | 4 | 5 | 6 | 7 | 8 |
| --- | --- | --- | --- | --- | --- | --- | --- | --- |
| T cruzi inh | 0 | -4 | -6 | -14 | 15 | 3 | -16 | x |
| MLL AF4-AF9 inh | -2.7 | 0.5 | 0.3 | x | x | 0.4 | -0.6 | -0.2&-4.7 |
| LANA-H2B inh | -3.9 | 5.8 | 2.1 | -2.7 | -2.1 | -3.2 | 1.0 | 4.6 |
| A1 inh | 0.2 | -0.1 | -0.4 | -0.6 | -0.4 | -3.9 | 1.0 | -0.4 |
| Vif TR-FRET | -1% | 3% | -4% | 4% | u | -5% | 3% | x |
| Calb FLC | -6 | 0 | -9 | -6 | 6 | u | -11 | x |
| Beta apoptosis | 3 | -2 | 1 | 0 | -2 | -1 | 1 | 2 |
| RanGTP-Imp inh | u | 6.1 | 2.5 | 6.5 | 2.8 | -2.4 | 0.7 | x |

9: Cc1cccc(NC(=O)CCn2ccnc2C)c1
10: COc1ccc(CCN(Cc2cc3cc(C)ccc3[nH]c2=O)C(=O)N2CCCC2)cc1OC
11: NC(=O)/C(=C\c1ccccc1)NC(=O)c1ccc(NC(=O)c2ccccc2)cc1
12: COC(=O)[C@H](CC(C)C)NC(=O)Nc1ccc(F)cc1
13: COC(CN(C(=O)CCl)C(C(=O)NC1CCCCC1)c1ccccc1C)OC (stereo not drawn)
14: CCOC(=O)Cc1csc(NC(=O)CN2C(=O)c3ccccc3S2(=O)=O)n1
15: Cc1nc2sccn2c(=O)c1S(=O)(=O)NCC1CCN(Cc2ccccc2Cl)CC1
16: CCOC(=O)CNC(=O)Cn1cnc2ccc(S(=O)(=O)N3CCC(C)CC3)cc2c1=O

| assay / entry | 9 | 10 | 11 | 12 | 13 | 14 | 15 | 16 |
| --- | --- | --- | --- | --- | --- | --- | --- | --- |
| T cruzi inh | -7 | 8 | -21 | -18 | -8 | x | 11 | 12 |
| MLL AF4-AF9 inh | x | x | -4.2 | -2.4 | 2.9 | x | 1.1 | x |
| LANA-H2B inh | -2.0 | 5.5 | -1.5 | 2.5 | -1.9 | -4.8 | 2.4 | 1.8 |
| A1 inh | -0.4 | 0.4 | -0.1 | 0.4 | -0.1 | 0.5 | -0.4 | -0.2 |
| Vif TR-FRET | 1% | -1% | -5% | 5% | x | -4% | x | -2% |
| Calb FLC | 3 | 0 | 2 | -4 | 4 | x | -4 | -17 |
| Beta apoptosis | -12 | 2 | 4 | 1 | 5 | 1 | -3 | -5 |
| RanGTP-Imp inh | 1.7 | 0.6 | -1.2 | -0.5 | 0.2 | x | -1.4 | -2.8 |

17: COc1cccc(CC(=O)Nc2ccc3c(c2)OC2(CCCC2)O3)c1
18: O=C(N/N=C/c1cccc(O)c1)c1ccccc1O
19: COc1cccc(NC(=O)CN(C)C(=O)c2ccccc2Sc2ccccc2C#N)c1
20: COc1ccc(NC(=S)NNc2ccc([N+](=O)[O-])cc2S(=O)(=O)Nc2ccc(C)cc2C)cc1
21: COc1cccc(COC(=O)c2sc3nc4n(c(=O)c3c2C)CCC4)c1OC
22: COc1ccccc1CN1C[C@@H]2C[C@@H](c3ccc(C)cc3)N3CCC[C@@]23C1=O
23: Cc1nn(CC(=O)NCCN2CCOCC2)c(=O)c2cc3sccc3n12
24: Cc1ccc(S(=O)(=O)NCCSc2nnc(N)s2)cc1

| assay / entry | 17 | 18 | 19 | 20 | 21 | 22 | 23 | 24 |
| --- | --- | --- | --- | --- | --- | --- | --- | --- |
| T cruzi inh | x | 6 | x | 0 | 12 | 11 | 0 | -8 |
| MLL AF4-AF9 inh | 4.0 | 1.4 | -1.0 | 7.8 | -16 | 1.2 | -2.7 | x |
| LANA-H2B inh | 0.8 | 7.3 | -0.8 | 3.3 | 0.3 | -5.3 | 6.9 | 0.9 |
| A1 inh | -1.4 | -3.4 | -0.5 | u | -0.5 | 0.8 | 2.5 | -0.3 |
| Vif TR-FRET | x | -9% | -8% | 8% | -12% | x | x | 1% |
| Calb FLC | x | u | x | u | x | 0 | -32 | 3 |
| Beta apoptosis | 0 | 3 | -2 | 13 | 1 | -4 | 0 | -6 |
| RanGTP-Imp inh | x | 1.9 | x | -3.6 | -0.3 | -1.4 | 0.8 | -0.1 |

25: CC(C)(C)N1C(=O)[C@H]2[C@@H](c3ccc(Br)cc3)N3C(=O)N(c4ccccc4)C(=O)[C@@]3(C)[C@H]2C1=O
26: Cc1nn(CC(=O)NCCCN2CCN(C)CC2)c(=O)c2cc(-c3ccccc3)nn12
27: COc1ccc(S(=O)(=O)N2CCOCC2)cc1NC(=O)c1cc(=O)[nH]c2ccccc12
28: Cc1ccc(C)c(NC(=S)NCc2cccn2C)c1
29: C/C(=N\N1CCN(C2c3ccccc3-c3ccccc32)CC1)c1cccnc1
30: COc1ccc(CNC(=O)Cc2csc(Nc3nc(=S)[nH]c4ccccc34)n2)cc1
31: Cc1nn(C)c(C)c1NS(=O)(=O)c1ccc(OC(F)(F)F)cc1
32: COc1ccc(OCC(=O)NCc2cccnc2)cc1

| assay / entry | 25 | 26 | 27 | 28 | 29 | 30 | 31 | 32 |
| --- | --- | --- | --- | --- | --- | --- | --- | --- |
| T cruzi inh | -3 | -3 | x | 0 | 6 | 11 | -8 | -5 |
| MLL AF4-AF9 inh | 3.5 | 1.9 | 0.0 | x | x | x | -1.9 | x |
| LANA-H2B inh | 0.8 | -4.8 | 4.7 | 3.6 | -5.5 | -1.7 | -6.4 | -3.5 |
| A1 inh | 0.1 | 0.6 | 0.2 | -0.3 | 0.3 | 0.3 | -1.0 | 0.1 |
| Vif TR-FRET | x | x | -15% | -1% | -8% | -1% | -1% | 2% |
| Calb FLC | 11 | -4 | x | 5 | 4 | 29 | -5 | 2 |
| Beta apoptosis | 3 | -4 | 0 | 1 | -3 | 11 | 4 | -2 |
| RanGTP-Imp inh | -2.0 | 1.4 | x | 0.4 | 3.3 | 11 | u | 0.7 |

Arranged by SMILES length (descending): some entries from above.
20: COc1ccc(NC(=S)NNc2ccc([N+](=O)[O-])cc2S(=O)(=O)Nc2ccc(C)cc2C)cc1
27: COc1ccc(S(=O)(=O)N2CCOCC2)cc1NC(=O)c1cc(=O)[nH]c2ccccc12
16: CCOC(=O)CNC(=O)Cn1cnc2ccc(S(=O)(=O)N3CCC(C)CC3)cc2c1=O
15: Cc1nc2sccn2c(=O)c1S(=O)(=O)NCC1CCN(Cc2ccccc2Cl)CC1
31: Cc1nn(C)c(C)c1NS(=O)(=O)c1ccc(OC(F)(F)F)cc1
17: COc1cccc(CC(=O)Nc2ccc3c(c2)OC2(CCCC2)O3)c1
6: Cc1cccc(NC(=O)c2cccc(C(F)(F)F)c2)c1
24: Cc1ccc(S(=O)(=O)NCCSc2nnc(N)s2)cc1
28: Cc1ccc(C)c(NC(=S)NCc2cccn2C)c1
32: COc1ccc(OCC(=O)NCc2cccnc2)cc1

| assay / entry | 20 | 27 | 16 | 15 | 31 | 17 | 6 | 24 | 28 | 32 |
| --- | --- | --- | --- | --- | --- | --- | --- | --- | --- | --- |
| T cruzi inh | 0 | x | 12 | 11 | -8 | x | 3 | -8 | 0 | -5 |
| MLL AF4-AF9 inh | 7.8 | 0.0 | x | 1.1 | -1.9 | 4.0 | 0.4 | x | x | x |
| LANA-H2B inh | 3.3 | 4.7 | 1.8 | 2.4 | -6.4 | 0.8 | -3.2 | 0.9 | 3.6 | -3.5 |
| A1 inh | u | 0.2 | -0.2 | -0.4 | -1.0 | -1.4 | -3.9 | -0.3 | -0.3 | 0.1 |
| Vif TR-FRET | 8% | -15% | -2% | x | -1% | x | -5% | 1% | -1% | 2% |
| Calb FLC | u | x | -17 | -4 | -5 | x | u | 3 | 5 | 2 |
| Beta apoptosis | 13 | 0 | -5 | -3 | 4 | 0 | -1 | -6 | 1 | -2 |
| RanGTP-Imp inh | -3.6 | x | -2.8 | -1.4 | u | x | -2.4 | -0.1 | 0.4 | 0.7 |

From PubChem
